# From PubChem
# YopH PTP inh = blocks Yersinia enterocolitica YopH tyrosine phosphatase. fluorescence Ex485/Em525. inhibition, %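 (about 10 µM by stock and volumes)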. hit rate 0.16% among 140,000. AID 898;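 active = inhibition of 50% or more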;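 note: controls were vehicle for no effect and minimum signal wells for full effect; inactives centre near -20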
# Arbovirus inh = arbovirus infection inhibition; arbovirus infection cell-based antiviral screen; inhibition, % at 10 µM; hit rate 0.37% among 200,000; AID 1251;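 active = inhibition from about 30%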;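 note: bluetongue infection of BSR cells; cell survival read as ATP light after 72 h; 0% = infected wells without compound and 100% = uninfected wells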
# Mtb H37Rv = M. tuberculosis H37Rv growth inhibitors, H37Rv strain (AID 1626); M. tuberculosis H37Rv growth inhibition; higher % means a stronger effect; inhibition, % at 10 µM; hits with a dose series show IC50 in µM; hit rate 0.95% among 220,000;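 active = confirmed in a dose series; inconclusive = inhibition above 80% but not taken into the dose series; inactive = below 80% or under 30% at every dose of the series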;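 note: bacteria incubated seven days before Alamar blue readout; 0% = bacteria only wells and 100% = bacteria with antibiotic wells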
# RecA intein inh = Mtb RecA intein splicing inhibition; inhibition, %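 (about 9 µM by stock and volumes)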; hit rate 0.75% among 290,000; cell-free RecA intein splicing, fluorescence; P9WHJ3; AID 2221; in the data active = inhibition above about 30%; inconclusive = no clear call, values can overlap the other calls;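 note: 0% = vehicle wells and 100% = reference inhibitor control wells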
# Target sequence (P9WHJ3 whole entry, looked up): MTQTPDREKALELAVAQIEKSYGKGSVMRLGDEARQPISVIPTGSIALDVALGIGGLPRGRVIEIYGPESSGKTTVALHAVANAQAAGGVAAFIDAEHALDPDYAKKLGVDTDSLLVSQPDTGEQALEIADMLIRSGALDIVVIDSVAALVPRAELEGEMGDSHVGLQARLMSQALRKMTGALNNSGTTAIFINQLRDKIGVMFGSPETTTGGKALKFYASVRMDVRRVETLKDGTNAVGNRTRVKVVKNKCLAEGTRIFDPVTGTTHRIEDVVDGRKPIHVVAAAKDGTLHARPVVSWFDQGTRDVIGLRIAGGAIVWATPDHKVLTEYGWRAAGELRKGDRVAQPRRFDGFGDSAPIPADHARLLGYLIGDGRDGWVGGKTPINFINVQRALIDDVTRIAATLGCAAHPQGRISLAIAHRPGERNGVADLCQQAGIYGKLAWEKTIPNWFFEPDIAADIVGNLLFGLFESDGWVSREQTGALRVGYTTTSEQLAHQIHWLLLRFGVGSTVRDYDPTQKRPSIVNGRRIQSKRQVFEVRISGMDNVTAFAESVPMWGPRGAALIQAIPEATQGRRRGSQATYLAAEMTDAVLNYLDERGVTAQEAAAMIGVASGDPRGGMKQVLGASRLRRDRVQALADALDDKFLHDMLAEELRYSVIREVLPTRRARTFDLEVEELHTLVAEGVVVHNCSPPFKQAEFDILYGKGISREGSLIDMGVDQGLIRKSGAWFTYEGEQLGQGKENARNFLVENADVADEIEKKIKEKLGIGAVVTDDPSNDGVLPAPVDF
# Mtb bLac sens = beta-lactam sensitization of Mtb H37Rv. M. tuberculosis H37Rv growth with meropenem, percent inhibition; hits of this screen are not shown here. inhibition, % at 25 µM. hit rate 0.27% among 330,000;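 active = about 74% or more and at least 40 points above the plate without the antibiotic, then above 30% in a dose series; inconclusive = first-round hits that could not be retested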;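 note: growth measured after seven days incubation then overnight dye step; 0% = bacteria only wells and 100% = bacteria with antibiotic; twin plates without the antibiotic show which effects depend on it; some results filed as inactive read as strong as hits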
# Arbovirus inh repeat = second read-out of Arbovirus inh, no call of its own (marks repeat the call); inhibition, %; measured here: 10K subset replicate screen; many hits read low in the repeat;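 first of two repeat runs on a subset; 0% = infected and 100% = uninfected wells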
# Numbers without * were called inactive; ? = inconclusive; . = no result given.
SMILES,YopH PTP inh,Arbovirus inh,Mtb H37Rv,RecA intein inh,Mtb bLac sens,others
O=C(c1ccco1)N1CCN(C(=O)C2CC(c3ccccc3F)=NO2)CC1 (centres undefined),.,.,.,1.1,1,
O=S1(=O)CC2NC(=S)N(c3cccc(Br)c3)C2C1 (centres undefined),.,.,5%,-0.5,2,
O=C(NC(c1ccccc1)c1ccccc1)c1cccc(S(=O)(=O)NCc2ccccc2)c1,-22,-16,4%,12,-5,
CCC(=O)N1C(Cc2ccccc2)COC1(C)C (centres undefined),-21,6,-6%,-1.4,1,
S=C(NCCc1ccccn1)Nc1cc(Cl)cc(Cl)c1,.,.,5%,3.1,-4,
CC1(C)CC(=O)C2=C(C1)Nc1ccccc1NC2c1ccc(F)cc1 (centres undefined),.,.,.,1.4,-1,
O=C(NC1CCc2ccccc21)C1CCN(S(=O)(=O)c2ccc(-n3cnnn3)cc2)CC1 (centres undefined),-5,1,0%,2.2,-2,
COc1c(Br)cc(Br)cc1C(=O)Nc1ccccc1N1CCCC1,.,.,.,4.3,9,
O=C(Cc1ccccc1)NC(NCCCN1CCOCC1)(C(F)(F)F)C(F)(F)F,-47,6,-7%,-2.7,-16,
COc1cccc(Nc2nc(-c3ccccc3)nc3ccccc23)c1,.,.,.,11,90,
Nc1nonc1-n1nnc(C(=O)N/N=C/C2CCCCC2)c1-c1ccccc1,.,.,.,5.0,-4,
Nc1c(C(=O)NCCc2ccccc2)nnn1Cc1ccc(Br)cc1F,.,7,-7%,-2.2,3,
COCCCNC(=O)CSc1nc2cc3c(cc2c(=O)n1CCCC(=O)NCc1ccc(OC)cc1)OCO3,.,6,3%,-3.1,-12,
O=C(O)COCC(=O)Nc1cc(C(F)(F)F)cc(C(F)(F)F)c1,.,.,-8%,5.8,-16,
CN(CC(=O)Nc1ccc(N2CCOCC2)cc1)CC(=O)Nc1ccc(Cl)cc1[N+](=O)[O-],-8,2,3%,1.3,-1,
CC(C)c1ccc(NC(=O)C2CC(=O)N(C(C)C)C2)cc1 (centres undefined),14,-8,0%,-5.1,-2,
O=C(Cn1cc2c(n1)CCCC2)NCc1cccs1,-40,1,-2%,0.1,4,Arbovirus inh repeat=-3
COc1cccc(OC)c1C(=O)NC(C)CCc1ccccc1 (centres undefined),.,.,.,0.3,-3,
O=C(COc1ccc2c(-c3ccccc3)cc(=O)oc2c1)Nc1cccnc1,.,.,.,0.5,10,
COc1cc(N=c2ssnc2Cl)cc(OC)c1,-8,-4,36%,2.6,97,
CCN1C2OC3OC4C(OC3OC2N(CC)S1(=O)=O)N(CC)S(=O)(=O)N4CC (centres undefined),.,3,9%,0.5,-4,
On1onc2c3cc(-c4ccccc4)nc3ccc21,-15,-24,.,.,100,
COc1ccc(NC(=O)CCNS(=O)(=O)c2cccc3nsnc23)cc1,.,19,-6%,2.8,2,
O=C(O)c1ccccc1/C=N/Nc1ccc(S(=O)(=O)N2CCOCC2)cc1[N+](=O)[O-],.,.,0%,-0.3,-3,
COc1ccccc1CNC(=O)c1nnc(Cc2ccc(Cl)cc2)o1,-22,7,.,0.5,0,Arbovirus inh repeat=3
# Next section:
SMILES,YopH PTP inh,Arbovirus inh,Mtb H37Rv,RecA intein inh,Mtb bLac sens,others
CCC1CCCCN1S(=O)(=O)c1ccc(C(=O)Nc2nnc(C3=COCCO3)o2)cc1 (centres undefined),.,.,.,2.2,65,
CC1CC(=O)N(c2ccc(NCc3ccc(Cl)cc3)c([N+](=O)[O-])c2)C1=O (centres undefined),-36,1,-3%,0.6,4,
CN(Cc1ccccc1)c1ccc(C(=O)O)cc1[N+](=O)[O-],-40,3,1%,2.0,2,
COc1cc(CNc2ccc(N3CCOCC3)c(C(=O)O)c2)ccc1OCC(N)=O,-32,-2,1%,-5.4,7,
O=C1NN(c2ccccc2)C(=O)/C1=C/c1ccc(-c2cccc(C(=O)O)c2)o1,.,.,.,-7.2,5,
CCOC(=O)C1CCN(C(=O)CSc2n[nH]c(=O)[nH]c2=O)CC1,-15,5,-9%,2.2,-9,
CCCOc1ccc(C(=O)N/N=C/c2ccc(-c3ccc(S(=O)(=O)Nc4ncccn4)cc3)o2)cc1,22,-1,3%,-0.9,.,
O=C([C@@H]1Cc2ccccc2CN1)N1CCN(Cc2ccccc2)CC1,.,.,.,-3.5,4,
NC(=O)c1ccsc1NC(=O)CSc1nnc(C2CC2)n1Cc1ccccc1,-11,0,-11%,4.6,5,
COc1ccc(CCNC(=O)c2coc3ccccc3c2=O)cc1OC,.,.,.,-1.7,1,
CC(=Nc1ccccc1)C1=C(O)CC(C)(C)CC1=O,.,-1,2%,-2.0,3,
CCOC(=O)Cc1csc(SCC(=O)Nc2cccc(C#N)c2)n1,-26,-5,5%,0.0,5,
CCCCCCCCCOC(=O)C1N2C(=O)[C@@H](NC(=O)COc3ccccc3)[C@H]2SC1(C)C (some centres undefined),.,.,-15%,4.9,-4,
CC(C)Oc1ccc(-c2cc(=O)[nH]c(=O)[nH]2)cc1,-8,-1,9%,2.8,6,
COC(=O)c1cc(-c2ccccc2)sc1N,-3,-9,9%,-3.2,11,
O=C(CCc1ccccc1)NNC(=O)C1CCCCC1,-32,-1,-6%,-0.7,.,
O=S(=O)(NCc1csc(-c2cccs2)n1)c1ccccc1,.,.,0%,3.3,6,
CCOC(=O)Cc1cnc(NC(=O)CSc2nc3ncnc(N)c3[nH]2)s1,.,-3,-5%,-0.2,2,
Cc1nn(-c2nnc(NC3CCCCC3)nn2)c(C)c1Br,-16,-16,9%,3.6,12,
O=c1ccnc(Sc2ncccc2[N+](=O)[O-])[nH]1,-17,-1,8%,-5.6,88,
O=C(CCc1nc2ccccc2c(=O)[nH]1)NNC(=O)COc1ccc(Br)cc1,.,.,.,0.4,-3,
C=CCn1c(COC)nnc1SCC(=O)c1ccc(F)cc1,-10,7,-8%,-0.2,2,
Cc1ccc(C(c2nnnn2CCc2ccccc2)N2CCSCC2)cc1 (centres undefined),-31,-8,.,1.1,-12,
COc1ccc(Br)cc1/C=N/N1CCN(Cc2ccccc2Cl)CC1,.,.,.,-0.8,-5,
CCNC(=S)Nc1nc2c(cc1C(=O)OCC)CCCC2,-33,-3,-6%,2.1,5,
# Continuation:
SMILES,YopH PTP inh,Arbovirus inh,Mtb H37Rv,RecA intein inh,Mtb bLac sens,others
COc1ccc(C(=O)Nc2cnn(Cc3ccc(Cl)cc3)c2)cc1OC,-32,-33,14%,4.0,5,
Cc1ccc(Oc2ncccc2/C=N/OCc2ccc(Cl)cc2Cl)cc1,-35,12,-5%,-0.4,-2,
CCOc1ccc(-c2c(=O)n(OCC)c3ccccc3[n+]2[O-])cc1,.,.,.,-0.8,63,
CCOc1ccc(NC(=O)c2cccnc2C(=O)O)cc1,-50,1,?,7.1,55,
O=C(Nc1cccc(S(=O)(=O)Nc2ccc(Cl)cc2)c1)c1ccc(Cl)nc1,-16,-23,14%,12,45,
O=C1CN(c2nc(-c3ccccc3)c3ccccc3n2)c2ccccc2N1,1,-11,2%,-6.7,0,
COCCN(C(=O)C1CC1)c1nnc(-c2cccc(C)c2)s1,-44,-8,-10%,0.4,0,
COc1ccc(C(=O)Oc2ccc3c(C)cc(=O)oc3c2C(C)=O)cc1,-34,2,-2%,-0.3,3,
N#CCC(=O)Nc1ccc(C(=O)NCc2ccccn2)cc1,.,1,-2%,.,0,
COc1ccc(C2CC(c3ccccc3)=NN2C(=O)CSc2ncn[nH]2)cc1 (centres undefined),.,14,0%,5.3,-2,
Oc1ccc(/C=N/n2c(-c3ccccc3)n[nH]c2=S)cc1Br,.,.,.,-0.7,2,
Cc1cccc(C)c1OCC(O)CN1CCN(c2ccccn2)CC1 (centres undefined),.,5,0%,0.9,-7,
CCOc1ccc(NC(=O)C(=O)NCCN2CCN(C(=O)c3ccc(C)cc3)CC2)cc1,.,.,.,0.6,2,
CC(C)C(NC(=O)C1CCCCC1)C(=O)NC1=NCCS1 (centres undefined),-5,13,.,-2.4,6,
COc1ccccc1NC(=O)C(=O)NCCCN1CCCC1=O,.,.,.,-0.7,-10,
COc1ccccc1OCC(=O)NCc1cccs1,-34,-9,-6%,-0.4,2,
CC(=O)n1nc2nc(C)cc(C)c2c1N,-56,-1,-2%,.,-5,
O=C(O)C1C2c3ccccc3C(c3ccccc32)C1C(=O)Nc1ccccc1 (centres undefined),.,2,-7%,1.7,10,
Cc1cccc(NCc2ccc(N(C)C)cc2)n1,.,.,.,-4.3,0,
Cn1cccc1C(=O)OCC(=O)NC1CCS(=O)(=O)C1 (centres undefined),.,2,-1%,2.2,-9,
O=P(c1ccccc1)(c1ccccc1)C(c1ccccn1)P(=O)(c1ccccc1)c1ccccc1,.,.,2%,4.5,-12,
CCOc1ccc(NC2=C(OC)C(=O)c3ccccc3C2=O)cc1,10,-8,28µM*,0.1,71,
CC1CCN(S(=O)(=O)c2ccc(C(=O)OCc3ccc4c(c3)OCO4)cc2)CC1,-24,7,-6%,-0.2,4,
CCC(=O)Nc1cccc(NC(=O)c2ccc(Br)cc2)c1,-33,-14,5%,0.4,-6,
CCC(CC)C(=O)c1c[nH]c(C(=O)NCc2ccccc2OC)c1,.,.,.,-1.6,3,

# Arranged by length of the SMILES (rising): some entries from above
SMILES,YopH PTP inh,Arbovirus inh,Mtb H37Rv,RecA intein inh,Mtb bLac sens,others
CC(=O)n1nc2nc(C)cc(C)c2c1N,-56,-1,-2%,.,-5,
CCOc1ccc(NC(=O)c2cccnc2C(=O)O)cc1,-50,1,?,7.1,55,
CC1CCN(S(=O)(=O)c2ccc(C(=O)OCc3ccc4c(c3)OCO4)cc2)CC1,-24,7,-6%,-0.2,4,
O=P(c1ccccc1)(c1ccccc1)C(c1ccccn1)P(=O)(c1ccccc1)c1ccccc1,.,.,2%,4.5,-12,

# Later entries:
SMILES,YopH PTP inh,Arbovirus inh,Mtb H37Rv,RecA intein inh,Mtb bLac sens,others
COc1ccc(CC(=O)N(Cc2ccccc2)c2ccc(C)cc2)cc1S(=O)(=O)N1CCOCC1,.,.,.,4.7,-3,
Cc1cc(-c2ccccc2C(=O)NC2CCCCC2)on1,.,.,-7%,-2.5,-2,
COC(=O)c1ccccc1N=Nc1c(N)[nH][nH]c1=O,.,.,13%,4.1,-2,
C(=N\N(Cc1ccccc1)c1ccccc1)/c1cccnc1,.,-19,12%,0.6,0,
Cc1ccc(NC(=O)CSc2ccc3nnc(-c4ccccn4)n3n2)cc1,.,.,.,-1.1,-6,
O=C(N/N=C/c1ccc2c(c1)OCO2)c1cccc2ccccc12,.,.,.,-4.7,-3,
CC(C)c1c(O)nc(SCC(=O)N2CCCCC2)[nH]c1=O,.,.,.,1.0,1,
COc1ccc(CSCC(=O)Nc2ccc(S(=O)(=O)N3CCCCCC3)cc2)cc1,-27,0,-13%,7.1,5,
O=c1[nH][nH]c2ccccc2c1=O,.,.,-1%,-1.9,-11,
O=C(NCc1ccc(F)cc1)C(=O)Nc1nc(C23CC4CC(CC(C4)C2)C3)cs1,-35,-10,89%,1.9,69,
O=C(NCCC1=CCCCC1)C1CCCN(S(=O)(=O)c2ccc(F)cc2)C1 (centres undefined),31,6,-3%,1.4,2,
COc1ccc(CNC(=O)c2ccc3c(=O)n(-c4ccccc4)c(=O)[nH]c3c2)cc1,.,.,.,-1.0,-1,
Cc1nc2cc(OCc3cc(C(=O)NC(C)c4cn(C)nc4C)no3)ccc2s1 (centres undefined),.,.,.,2.2,-3,
O=C1CC(c2cccc(Cl)c2)c2cc3c(cc2N1)CCC3 (centres undefined),-46,-16,4%,4.4,2,
Cc1ccc(C)c(NC(=O)CCN2CCCC(C)C2)c1 (centres undefined),.,.,.,-3.6,7,
CC(C)NC(=O)c1ccc(CS(=O)(=O)c2ccc(Br)cc2)o1,-41,3,-2%,4.3,-3,Arbovirus inh repeat=-3
O=C1CSC(c2cccc([N+](=O)[O-])c2)N1Cc1ccccc1 (centres undefined),.,.,.,2.0,-4,
CC1(C)CC(=O)C/C(=N/NC(=O)COc2ccc(Cl)cc2Cl)C1,.,.,-3%,5.0,-4,
COCCC(=O)N1CCC(Oc2ccc(C(=O)N(C)CCCC3CCCC3)cc2)CC1,.,.,.,3.5,4,
COc1ccc(C(=O)Nc2ncc3c(n2)-c2ccccc2CC3)cc1,-39,-7,2%,2.0,0,
CCOC(=O)C(=O)N1CCC(C(=O)OCC)CC1,.,.,-13%,-0.3,19,
Cc1nc2ccccc2n1C1CCN(CC(=O)Nc2ccccc2Br)CC1,.,0,4%,2.9,8,
Cc1ccc(/C=N/n2c(C)cc(C)c(C#N)c2=O)cc1,7,1,-13%,-3.4,-3,
Cc1ccccc1C(=O)c1cccn1CC(=O)NC(C)c1ccc2c(c1)OCCO2 (centres undefined),.,-5,4%,-1.4,-4,
O=C1CCCC2=C1C(c1ccncc1)n1c(nc3ccccc31)N2 (centres undefined),.,1,-8%,-1.8,4,
Clc1ccc(C[n+]2cc(-c3ccccc3)n3c2CCC3)cc1Cl,-8,19,16%,-0.2,3,

# The list is partial, so the mix of outcomes need not match the whole.
